VDR inhibitor = blocks the human vitamin D receptor. VDR-SRC2-3 peptide fluorescence polarization, 2 h. Potency, µM, for inactives: max response, negative = inhibition, actives largely listed as inhibitors. 0.93% of 400,000 active; active = well fitted inhibition curve with a large enough effect; inconclusive = small, poorly fitted or top-dose-only effect, or another doubt; inactive = no such curve, though single readings can be large or run the other way; also: series mostly up to about 120 µM
Target sequence (P11473 whole entry, looked up): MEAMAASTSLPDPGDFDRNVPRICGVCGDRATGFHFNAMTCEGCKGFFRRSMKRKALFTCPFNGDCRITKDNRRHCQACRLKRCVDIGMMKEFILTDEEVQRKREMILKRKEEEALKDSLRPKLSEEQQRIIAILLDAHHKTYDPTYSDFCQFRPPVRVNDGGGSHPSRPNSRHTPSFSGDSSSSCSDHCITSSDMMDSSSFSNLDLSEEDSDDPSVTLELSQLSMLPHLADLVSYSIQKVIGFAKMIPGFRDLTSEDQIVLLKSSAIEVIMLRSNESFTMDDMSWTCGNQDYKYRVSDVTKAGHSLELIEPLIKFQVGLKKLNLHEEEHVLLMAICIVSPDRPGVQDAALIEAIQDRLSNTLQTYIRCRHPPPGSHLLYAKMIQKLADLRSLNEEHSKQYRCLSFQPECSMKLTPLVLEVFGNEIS
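VDR–SRC2-3 interaction, FP format. Cmpds 23 nl via pintool, brief spin, 2 h ambient incubation.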
* marks the source's active call; other numbers are inactive results; & = joins results of further samples. % is scaled to controls: 0 for no effect and ±100 for the full control effect; potency is read from the fitted curve at half-maximal effect. Not all compounds are listed. The share of hits here may be higher or lower than overall.

Sample of the layout, two compounds:
`COc1ccc(CC(=O)NCc2nn(-c3ccccc3)nc2C)cc1OC` gave VDR inhibitor -21%.
O=C(/C=C/c1ccccc1)OC1CC(O)C2(O)C=CO[C@@H](OC3OC(CO)C(O)C(O)C3O)C12 (stereo not given in full) was read as VDR inhibitor 9%.

The listing, from the first entry:
`COc1ccc(CC(=O)NCc2nn(-c3ccccc3)nc2C)cc1OC` gave VDR inhibitor -21%.
O=C(/C=C/c1ccccc1)OC1CC(O)C2(O)C=CO[C@@H](OC3OC(CO)C(O)C(O)C3O)C12 (stereo not given in full) was read as VDR inhibitor 9%.
`N/C(=N\OC(=O)c1ccc2c(c1)OCO2)c1ccncc1` gave VDR inhibitor 5%.
CCOC(=O)C1(Cc2cccc(OC)c2)CCCN(S(=O)(=O)CC)C1 (stereo not given) was read as VDR inhibitor -8%.
`CC(C)CN(C(=O)CSc1ncnc2sccc12)C1CCS(=O)(=O)C1` (stereo not given) gave VDR inhibitor -18%.
For COc1ccc(NC(=O)c2ccc(-c3ccc(C(C)=O)cc3)o2)cn1 the results were VDR inhibitor -2%.
`CC(C)Cn1c(=O)c(CCC(=O)Nc2ccc(N3CCOCC3)cc2)nc2cc(Cl)ccc21` gave VDR inhibitor 2%.
Screening CCOc1cc(C(=O)N=c2sccn2C)ccc1OC(F)F returned VDR inhibitor 3%.
`O=C(COc1ccccc1)NCC1COc2ccccc2O1` (stereo not given) gave VDR inhibitor -13%.
Cc1nnc(SCC(C)C)[nH]c1=O was read as VDR inhibitor 10%.
Cc1nc2nc(C)c(CCC(=O)NC(C)c3ccc4c(c3)OCCO4)c(C)n2n1 (stereo not given) was read as VDR inhibitor 2%.
Screening CCc1c(C)n2nc(C)cc2[nH]c1=O returned VDR inhibitor 5%.
`O=C(CSC1=NS(=O)(=O)c2cc(F)ccc2N1)Nc1ccc(F)cc1` gave VDR inhibitor -11%.
`CS(=O)(=O)N(CC(=O)NCCSCc1ccccc1Cl)c1ccc(F)cc1` gave VDR inhibitor 7%.
`COc1cc(C(=O)Nc2ccc(S(=O)(=O)Nc3cc(C)nc(C)n3)cc2)cc(OC)c1OC` gave VDR inhibitor -16%.
Screening O=C(NCCCNCc1ccccc1)c1ccccn1 returned VDR inhibitor -9%&5%.
Screening Cc1ccc(C)c(S(=O)(=O)N2CCN(C(=O)CCCc3c[nH]c4ccccc34)CC2)c1 returned VDR inhibitor -18%.
For COc1cc(OC)c2c(c1)OC(=O)CC2c1ccccc1OC (stereo not given) the results were VDR inhibitor 0%.
For COc1ccc2[nH]c(C)c(CCN(Cc3cccs3)C(=S)Nc3cccc(F)c3)c2c1 the results were VDR inhibitor -1%.
Screening Cc1ccc(C(C)C)c(OCCSc2nc(-c3ccccc3F)nc3cc(=O)[nH]n23)c1 returned VDR inhibitor 0%.
Screening O=C(N/N=C/c1cccnc1)c1ccccc1Br returned VDR inhibitor -11%.
CC(C)CSc1oc(-c2ccco2)nc1S(=O)(=O)c1ccc(Br)cc1 was read as VDR inhibitor -2%.
For Cn1c(=O)c2c(ncn2CC(O)CNc2ccc(Cl)cc2)n(C)c1=O (stereo not given) the results were VDR inhibitor 3%.
`COc1ccc(C(=O)NCc2ccccn2)cc1` gave VDR inhibitor -6%.
For COc1cc(NC(=O)COc2ccc(-n3ccnc3)cc2)cc(OC)c1 the results were VDR inhibitor 4%.
`O=C1Nc2ccc(Br)cc2/C1=N\N=C\C1=C(N2CCOCC2)C(=C/c2ccccc2)/CC1` gave VDR inhibitor -5%.
Screening COc1ccccc1-n1nnnc1SCC(=O)Nc1oc(C)c2c(C)n[nH]c(=O)c12 returned VDR inhibitor -3%.
For O=C(CCS(=O)(=O)c1ccc2c(c1)NC(=O)CO2)Nc1cccc(C(F)(F)F)c1 the results were VDR inhibitor 5%.
Screening O=C1CN(C(=O)c2cccc([N+](=O)[O-])c2)CC(=O)N1 returned VDR inhibitor -3%.
`CC(=O)C1=C(O)C(=O)N(CCc2ccccc2)C1c1ccccc1[N+](=O)[O-]` (stereo not given) gave VDR inhibitor 0%.
CNC(=O)c1cc(Oc2ccc(NC(=O)Nc3ccc(Cl)c(C(F)(F)F)c3)cc2)ccn1 was read as VDR inhibitor -3%&5%.
Screening O=C(c1ccccc1Br)N(Cc1ccccc1F)C1CCS(=O)(=O)C1 (stereo not given) returned VDR inhibitor 6%.
`CN(C)c1ccc(CNC(=O)C2CCN(c3nnc(-n4cccc4)s3)CC2)cc1` gave VDR inhibitor -1%.
Screening O=c1[nH][nH]c2cc([N+](=O)[O-])ccc12 returned VDR inhibitor -9%.
Screening CC(C)S(=O)(=O)c1csc(C(=O)NN)c1Cl returned VDR inhibitor -2%.
For Cc1ccc(-c2csc3ncnc(SCc4ccc(C(=O)O)cc4)c23)cc1 the results were VDR inhibitor -11%.
For COc1ccc(C)cc1S(=O)(=O)N1CCN(C(=O)c2ncoc2-c2ccccc2C)CC1 the results were VDR inhibitor -9%.
`COc1ccc(S(N)(=O)=O)cc1N(C)S(=O)(=O)c1ccccc1` gave VDR inhibitor inconclusive.
Screening O=C(O)c1ccc(/C=N/Nc2cccc(C(F)(F)F)c2)cc1 returned VDR inhibitor -18%.
Screening CCN(CC)S(=O)(=O)c1cccc(C(=O)c2c(C)cc3ccccn23)c1 returned VDR inhibitor -15%.
`O=C(c1ccc(N2CCCS2(=O)=O)cc1)N1CCN(c2ccc(F)cc2)CC1` gave VDR inhibitor 0%.
For CCC(=O)Nc1sc2c(c1C(N)=O)CCN(C(C)=O)C2 the results were VDR inhibitor -3%.
O=c1c(C=Nc2ccc(Oc3ccccc3)cc2)c[nH]n1-c1cccc(Cl)n1 was read as VDR inhibitor 7%.
COCCn1nnnc1C(c1ccccc1OC)N1CCN(c2ccccc2)CC1 (stereo not given) was read as VDR inhibitor 2%.
Cc1cc(Oc2ccc(=O)n(C)n2)nc(SCC(N)=O)n1 was read as VDR inhibitor -2%.
For COc1ccc(CCN(C)C(=O)CSc2nc3ccccc3c(=O)n2CC2CCCO2)cc1OC (stereo not given) the results were VDR inhibitor -2%.
`CCCN1Cc2cccc(C(=O)N3CCN(c4cc(Cl)ccc4C)CC3)c2C1=O` gave VDR inhibitor 18%.
For Cc1cc(OCC(=O)O/N=C(\N)c2ccccc2)ccc1Br the results were VDR inhibitor 3%.
For Cc1ccc(Cl)c(OCC(=O)N2CCc3ccccc3C2)c1 the results were VDR inhibitor -11%.
For C=Cc1ccc(Cn2c(C)c(CNCCc3ccccc3C)c(C(=O)O)c2C)cc1 the results were VDR inhibitor 4%.
CCOc1ccc(S(=O)(=O)N2CCN(C(=O)Cc3n[nH]c(=O)c4ccccc34)CC2)cc1 was read as VDR inhibitor 11%.
N#C/C(=C\c1ccc(-c2cccc(Cl)c2)o1)C(=O)Nc1cccc2cccnc12 was read as VDR inhibitor -16%.
Screening CN1CCN(C2Cc3ccccc3Sc3ccc(S)cc32)CC1 (stereo not given) returned VDR inhibitor -19%.
For COc1ccc(C(=O)N2c3ccccc3C=CC2C#N)cc1 (stereo not given) the results were VDR inhibitor -4%.
`Cc1noc(C)c1S(=O)(=O)NCC(=O)O` gave VDR inhibitor -12%.
Screening Clc1ccccc1-c1ccc(/C=N/n2cnnc2)o1 returned VDR inhibitor -5%.
O=C(CN1C(=O)NC(c2ccccc2)(c2ccccc2)C1=O)NCC(=O)Nc1ccc(F)cc1 was read as VDR inhibitor -15%.
For CCC1CCCCN1CC(=O)c1c(C)[nH]c2ccc(OC)cc12 (stereo not given) the results were VDR inhibitor -15%.
For COc1ccc(-c2cc(CCC(=O)N3CCN(c4cc(C)ccc4C)CC3)[nH]n2)cc1 the results were VDR inhibitor -3%.
`CCN1CCN(c2nc(Nc3cccc(F)c3)nc(N)c2[N+](=O)[O-])CC1` gave VDR inhibitor 6%.
`Cc1ccc(C(=O)Nc2ccc(O)cc2C(=O)O)cc1` gave VDR inhibitor -1%.
COCCn1c(Cc2ccccc2)nnc1SCC(=O)N1CCOCC1 was read as VDR inhibitor -11%.
For COc1cccc(NC(=O)Cn2c(=O)n(Cc3ccc(C(=O)NCc4ccc(C)cc4)cc3)c(=O)c3ccccc32)c1 the results were VDR inhibitor -19%.
`Cc1cc(N2CCN(c3ccccc3)CC2)n2cnnc2n1` gave VDR inhibitor 17%.
O=C(COc1ccc2c3c(c(=O)oc2c1)CCCC3)N[C@@H](Cc1ccccc1)C(=O)O was read as VDR inhibitor -7%.
`O=c1cnc2cncnc2n1Cc1ccccc1Cl` gave VDR inhibitor 40µM*.
For COc1ccc(C2=C(C)C(=O)N(Cc3ccc(C(=O)NCc4ccc(C)cc4)cc3)S2(=O)=O)cc1 the results were VDR inhibitor 9%.
For CCCCCOC(=O)NC1CCS(=O)(=O)C1 (stereo not given) the results were VDR inhibitor -6%.
Screening O=C(Nc1ccnn1C1CCN(Cc2cccc(OCCO)c2)CC1)C1CCOC1 (stereo not given) returned VDR inhibitor 10%.
`O=C(COc1ccc(Cl)cc1Cl)NCc1ccncc1` gave VDR inhibitor -22%.
Oc1c(Br)cccc1/C=N/c1ncn[nH]1 was read as VDR inhibitor -1%.
CCn1c(CNc2cccc(Cl)c2)nnc1SCC(=O)OC1CCCCC1 was read as VDR inhibitor 4%.
Screening Clc1ccc(-c2c[n+](Cc3ccc(Br)cc3)c3n2CCCCC3)cc1 returned VDR inhibitor 9%.
Screening Cc1ccccc1C(=O)Nc1ccc(O)cc1C(=O)O returned VDR inhibitor -7%.
For CCOc1ccccc1NC(=O)c1cc(=O)c2ccc(C)cc2o1 the results were VDR inhibitor 5%.
For COc1ccc(C(CNC(=O)COc2c(C)cc(C)cc2C)N2CCOCC2)cc1 (stereo not given) the results were VDR inhibitor 1%.
O=C(c1ccc(F)cc1Cl)N1CCN(S(=O)(=O)c2cccs2)CC1 was read as VDR inhibitor 6%.
Screening Cn1nc(NC(=O)C2CCC2C(=O)O)c2c(F)cccc21 (stereo not given) returned VDR inhibitor -27%.
`Cc1nn(C)c(Cl)c1S(=O)(=O)N(Cc1ccco1)c1ncnc2nc[nH]c12` gave VDR inhibitor -3%.
O=C(NCc1ccco1)c1ccc(Cl)c(S(=O)(=O)Nc2ccccc2)c1 was read as VDR inhibitor 8%.
For COc1cc2c(cc1OC)C(c1cc(OC)c(OC)c(OC)c1)C1(O)C(=O)OCC1(O)C2 (stereo not given) the results were VDR inhibitor -12%.
Cc1ccccc1N/N=C/c1c(C)nc2ccccn12 was read as VDR inhibitor 6%.
For Cc1ccc(SCC(=O)Nc2ccccc2C(=O)N2CCOCC2)cc1 the results were VDR inhibitor -14%.
For CCCc1cc(C(=O)NNC(=S)Nc2cccc(C)c2)cs1 the results were VDR inhibitor -20%.
For N#CCSc1nc2c(cc1C#N)CCCC2 the results were VDR inhibitor -18%.
Cc1ccc(NC(=O)c2cccc(S(=O)(=O)NCc3ccccc3)c2)nc1 was read as VDR inhibitor -9%.
For CCc1ccc(C2c3c(n[nH]c3C)C(=O)N2c2ccc(C)cc2)cc1 (stereo not given) the results were VDR inhibitor -10%.
`O=C(NC1CCCc2ccccc21)c1c(F)cccc1Cl` (stereo not given) gave VDR inhibitor 5%.
Screening O=C(c1cc(-c2ccccn2)nc2ccccc12)N1CCN(c2ncccn2)CC1 returned VDR inhibitor -8%.
`NC(=O)c1ccsc1NC(=O)Cc1ccc([N+](=O)[O-])cc1` gave VDR inhibitor -24%.

Arranged by heavy-atom count (lowest first): seven of the compounds above
For N#CCSc1nc2c(cc1C#N)CCCC2 the results were VDR inhibitor -18%.
Cc1ccccc1N/N=C/c1c(C)nc2ccccn12 was read as VDR inhibitor 6%.
`O=C(NC1CCCc2ccccc21)c1c(F)cccc1Cl` (stereo not given) gave VDR inhibitor 5%.
For CCc1ccc(C2c3c(n[nH]c3C)C(=O)N2c2ccc(C)cc2)cc1 (stereo not given) the results were VDR inhibitor -10%.
For Cc1ccc(SCC(=O)Nc2ccccc2C(=O)N2CCOCC2)cc1 the results were VDR inhibitor -14%.
Screening O=C(c1cc(-c2ccccn2)nc2ccccc12)N1CCN(c2ncccn2)CC1 returned VDR inhibitor -8%.
For COc1cc2c(cc1OC)C(c1cc(OC)c(OC)c(OC)c1)C1(O)C(=O)OCC1(O)C2 (stereo not given) the results were VDR inhibitor -12%.

Following part
CC1=C(C#N)C(=O)OC(C)(C)C1 was read as VDR inhibitor inconclusive.
Screening O=C(/C=C/c1ccc(O)c(O)c1)c1ccc(O)cc1O returned VDR inhibitor inconclusive.
`O=C1C=CC(c2ccccc2)(c2ccccc2)CC1` gave VDR inhibitor 3%.
COc1ccc(-c2cc(C(F)F)n3ncc(C(=O)Nc4cc(C)on4)c3n2)cc1 was read as VDR inhibitor -5%.
COc1ccc(-c2cc(OC(=O)c3cccc(Cl)c3)c3c(C)oc(C)c3c(=O)c2)cc1OC was read as VDR inhibitor 4%.
`COc1cccc(NC(=O)c2ccc(-n3cnnn3)cc2)c1` gave VDR inhibitor -7%.
Screening CCN(CC)CCn1c(SCC(=O)Nc2cccc(OC)c2)nc2c(sc3ccccc32)c1=O returned VDR inhibitor -28%.
Screening COc1ccc(NC(=O)CN(C)C(=O)c2oc3c(ccc4ccccc43)c2C)cc1 returned VDR inhibitor 7%.
`O=C(NNC(=O)c1ccncc1)c1ccccc1` gave VDR inhibitor 5%.
O=c1[nH]c(/C=C\c2cccc(O)c2)nc(O)c1[N+](=O)[O-] was read as VDR inhibitor -8%.
CC(NC(=O)c1cc2ccccc2o1)c1ccccc1 (stereo not given) was read as VDR inhibitor -3%&-3%.
`Cc1ccc(N(C(=O)c2snc(C(N)=O)c2N)C(C(=O)NC2CCCC2)c2ccncc2)cc1` (stereo not given) gave VDR inhibitor -5%.
For O=C(N[C@@H](Cc1ccccc1)C(=O)NCCc1c[nH]c2ccccc12)c1ccco1 the results were VDR inhibitor -10%.
CC(=O)Nc1sc(C)c(C)c1C(=O)OCC(=O)Nc1cc(S(C)(=O)=O)ccc1Cl was read as VDR inhibitor -20%.
`C=CCSC1=C(C#N)C(c2ccccc2OCC)CC(=O)N1` (stereo not given) gave VDR inhibitor -23%.
Cc1ccc(NC(=S)N(N)CCO)cc1 was read as VDR inhibitor -4%.
COc1ccc(C)cc1NC(=O)C1CCN(S(=O)(=O)c2ccccc2)CC1 was read as VDR inhibitor 8%.

Screens as filed in PubChem BioAssay.
